# LT uptake inh: qHTS Assay for Anthrax Lethal Toxin Internalization. Potency, µM (titrated, usually from 40 µM), for the others: top-dose activity change, negative = inhibition, hits mostly inhibitors. Cells, anthrax lethal toxin internalization, FRET ratio (460/530). 70,000 compounds, 0.67% hits; active = well fitted falling ratio curve with the 530 nm signal flat; inconclusive = other ratio curves, or a change in one channel alone; inactive = flat curves in the ratio and both channels; the % refers to the ratio; also: % is scaled to controls: 0 for no effect and ±100 for the full control effect; nearly all actives have a fitted effect of over 50% in size; tested in ME-180 cells; beta-lactamase reporter
# Prx2 Sm inh: Schistosoma Mansoni Peroxiredoxins (Prx2); Schistosoma mansoni peroxiredoxin 2 (Prx2); S. mansoni Prx2 activity coupled to TGR/GSH (TGR is thioredoxin glutathione reductase), NADPH fluorescence loss, qHTS; some inactives read as strong as hits; Potency, µM; 65,000 compounds, 0.07% hits; AID 448, 2006; active means full or partial inhibition curve with a strong effect at the top dose; inconclusive means weaker partial or single-point curve; inactive means no accepted curve; also: series up to 57 µM; many of its hits are not listed in these tables
#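 Coupled assay in which S. mansoni TGR passes NADPH reducing equivalents via glutathione to Prx2, which reduces H2O2. Compounds were preincubated 15 min at room temperature with 25 nM TGR/50 nM Prx2 mix. Kinetic NADPH fluorescence loss (ex 365/em 450 nm) was monitored.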
# Active calls of the source: *; ? = inconclusive; / = not tested or not shown; & = joins results of further samples; [ ] = remark or other dose. Potency is read from the fitted curve at half-maximal effect.
compound,Prx2 Sm inh,LT uptake inh
CCC1Cc2c(nc3c4c(nc(N5CCOCC5)c(C#N)c24)NC(C)=N3)O1 (stereo not given),>57,?
N#Cc1cnc(SCCc2ccccc2)nc1N,>57,-11%
CC(=Nc1ccc(C)c(C)c1)C1=C(O)CSC1=O,>57,-9%
COC(=O)[C@H](C(C)C)n1c(C)c(C(C)=O)c(C(C)=O)c1C,>57,0%
CN(C)c1cc(NC(=O)CN2CCOCC2)c2ccccc2n1,>57,-20%
C=C(C)Cn1c(NCCOC)nc2c1c(=O)[nH]c(=O)n2C,>57,-18%
COC(=O)C1CCN(c2cc(=O)n(Cc3ccc(F)cc3)c(=O)[nH]2)CC1,>57,8%
COc1ccccc1N1CCN(Cc2c(F)cccc2F)CC1,/,-5%
O=C(CCCN1C(=O)c2ccccc2C1=O)N1CCN(c2ccccn2)CC1,>57,4%
Cc1ccc(CSc2nc3c(c(=O)[nH]2)CCC3)cc1,>57,-4%
Cc1cc(C)c(NC(=O)CS(=O)CC(=O)Nc2cccnc2)c(C)c1 (stereo not given),>57,-8%
N#CCCn1c(=O)c(CCc2ccccc2)nc2cnc(Oc3cccc(Cl)c3)nc21,>57,?
O=C(CCC1CC(=O)Nc2ccccc21)NCc1cccnc1 (stereo not given),>57,4%
O=C(O)CSc1nnc(C2CC2)n1-c1ccccc1,>57,30%
COc1ccc(S(=O)(=O)N2CCCC(C(=O)N3CCOCC3)C2)cc1C (stereo not given),>57,-9%
CCCOc1c(Br)cc(C(=O)NCC)cc1OC,>57,-3%
CCCCN(CC)CCNC(=O)c1cc2c(=O)n(C)c3ccccc3c2n1C,>57,5µM*
COc1ccc(CNC(=O)CN(CC2CCCO2)C(=O)CNS(=O)(=O)c2ccc(C)cc2)cc1 (stereo not given),>57,-4%
CCCC1(CCC)NC(=O)N(CC(=O)Nc2ccccc2OC)C1=O,>57,0%
c1ccc2c(c1)nc(N1CCOCC1)c1nnnn12,>57,-1%
CCCS(=O)(=O)N1CCN(Cc2ccccc2OCC)CC1,>57,14%
CCCCn1c(C(C)NC(=O)c2cccs2)nc2ccccc21 (stereo not given),>57,-14%
Cn1c(=O)cc(SCC(=O)N2CCOCC2)c2ccc(Cl)cc21,>57,11%
CO[C@@H]1COC(=O)[C@H](COCc2ccccc2)NC(=O)C/C=C\[C@@H](C)[C@H](OC)COC(=O)[C@H](COCc2ccccc2)NC(=O)C/C=C\[C@H]1C,/,-7%[8 µM]
CCOC(=O)C1CCCN(C(=O)c2ccccc2Oc2ccccc2)C1 (stereo not given),/,-19%
O[C@@](CCN1CCCCC1)(c1ccccc1)C1CCCCC1,>57&>57,-5%[3.58 µM]
CN1CCN(C2=C(Cl)C(=O)N(C3CCCCC3)C2=O)CC1,>57,2%
CC(C)(C)n1nc2c(c1NC(=O)c1ccc(S(=O)(=O)N3CCCC3)cc1)CSC2,>57,?
COc1ccc(C(=O)Oc2ccc3c(c2)OCO3)cc1OC,/,7.9µM*
COc1cccc(-c2nn(-c3ccccc3)cc2C(=O)O)c1,>57,8%
CC(C)N(C#N)c1nc(N2CCOCC2)nc(N2CCOCC2)n1,>57,-5%
CN(c1ccc(C(=O)NCc2cccnc2)cc1)S(C)(=O)=O,>57,?
COCCn1c(C)cc(C(=O)CSc2nncn2-c2ccccc2)c1C,>57,-4%
CCN(CC)S(=O)(=O)c1ccc(NC(=O)Cn2cnc3ccccc3c2=O)cc1,>57,-13%
Cc1cc(C(=O)Nc2c(C)n(C)n(-c3ccccc3)c2=O)c(C)o1,>57,-8%
CCCOC(=O)COc1cc(C)cc2oc(=O)c3c(c12)CCC3,/,-12%
CCOC(=O)N/N=C1/C[C@@H](O)[C@@H](O)[C@@H]2[C@@H]3C(=O)N(C4CCCCC4)C(=O)[C@H]3CC[C@H]12,/,4%[8 µM]
C(=NCCCN1CCOCC1)c1ccc2c(c1)OCO2,>57,-8%
O=C(CSc1nc2ccccc2s1)c1sc2sc3ccccc3[n+]2c1O,>57,?
O=S(=O)(CCc1nnc(-c2ccccc2)o1)c1ccc2ccccc2c1,/,-2%
CCS(=O)(=O)N1CCC[C@H]2CN3CCc4cc(OC)ccc4[C@@H]3C[C@@H]21,>57,0%
COC(=O)CCN(c1ccccc1)S(=O)(=O)c1ccc(OC)cc1,>57,-4%
O=C(CCC1CCCCC1=O)c1ccccc1 (stereo not given),>57,-3%
CS(=O)(=O)N(CC(=O)NCc1ccc2c(c1)OCO2)Cc1ccc(Cl)cc1,>57,1%
CCSc1nnc(C)n1-c1ccc(C(=O)O)cc1,>57,?
COc1ccc2sc(NC(=O)CC(C)C)nc2c1,>57,-4%
O=C(Nc1ccccc1)OCC1CCCN2CCCCC12 (stereo not given),>57,-3%
COC(=O)Nc1ccc(S(=O)(=O)N2CCCc3ccccc32)cc1,>57,-15%
Cn1c(-c2ccc3c(c2)OCO3)cnc1N,>57,-2%
Cn1c(C(=O)NCCCN2CCCC2=O)cc2c(=O)n(C)c3ccccc3c21,>57,19%

# Rewritten with values under each structure: entries from further up
# Under each structure – Prx2 Sm inh, LT uptake inh
- C(=NCCCN1CCOCC1)c1ccc2c(c1)OCO2
 : >57, -8%
- O=C(CSc1nc2ccccc2s1)c1sc2sc3ccccc3[n+]2c1O
 : >57, ?
- O=S(=O)(CCc1nnc(-c2ccccc2)o1)c1ccc2ccccc2c1
 : /, -2%
- CCS(=O)(=O)N1CCC[C@H]2CN3CCc4cc(OC)ccc4[C@@H]3C[C@@H]21
 : >57, 0%
- COC(=O)CCN(c1ccccc1)S(=O)(=O)c1ccc(OC)cc1
 : >57, -4%
- O=C(CCC1CCCCC1=O)c1ccccc1 (stereo not given)
 : >57, -3%
- CS(=O)(=O)N(CC(=O)NCc1ccc2c(c1)OCO2)Cc1ccc(Cl)cc1
 : >57, 1%

# (listing goes on)
compound,Prx2 Sm inh,LT uptake inh
O=C1Nc2ccc(S(=O)(=O)NCc3ccccn3)c3cccc1c23,>57,/
Cc1nn(C)c(C)c1CNC(=O)c1cc2n(n1)C(C(F)(F)F)CC(c1cccs1)N2 (stereo not given),>57,?
CCOC(=O)C1(c2csc(N)n2)COC(=O)C1 (stereo not given),/,7%
CC(C)OCCCNC(=O)c1ccc(N(C)S(C)(=O)=O)cc1,/,5%
Cc1nc2ccc(C(=O)O)cc2c2c1CC(C)S2 (stereo not given),>57,1%
O=C(CC1=NCCNC(c2ccccc2)C1)c1ccccc1O (stereo not given),>57,?
O=Cc1ccc(CO)o1,/,-16%
[O-][n+]1c2c(nn1-c1ccccc1Cl)-c1nonc1CC2,>57,8%
O=C(CCCC(=O)N(CC(=O)NC1CCCC1)Cc1ccc2c(c1)OCO2)Nc1ccccn1,>57,-9%
[CH3][Hg][Cl],/,?
COc1cccc(C2CC(c3ccc(C)cc3)n3ncnc3N2)c1 (stereo not given),>57,-10%
O=S(=O)(c1cccc2c(I)cccc12)N1CCCNCC1,>26,3.2µM*
COc1ccc(C2C3=C(CC(C)(C)CC3=O)Oc3ncn(Cc4ccco4)c(=N)c32)cc1 (stereo not given),>57,?
COc1ccc(-c2ccc(-c3noc(-c4ccco4)n3)c(OC)n2)cc1,>57,?
CC(=O)Nc1ccc(S(=O)(=O)N=S(C)C)cc1,>57,1%[8 µM]
C[C@@H]1CCCC(CC(=O)O)(CC(=O)O)C1,>57,14%[8 µM]
O=C(COc1ccc(S(=O)(=O)N2CCCC2)cc1)NCCC1=CCCCC1,>57,-6%
CCc1ccccc1NS(=O)(=O)c1ccc(SC)cc1,>57,-12%
NC(=O)c1ccc(-n2nnnc2SCC(=O)Nc2ccc(N3CCOCC3)c(Cl)c2)cc1,>57,-23%
CCCc1[nH]nc2c1C1(C(=O)N(CC)c3ccccc31)C(C#N)=C(N)O2 (stereo not given),>57,-1%
CCn1c(N)c(C(=O)NCCCOC)sc1=S,>57,1%
CCc1nn(CC(=O)NCCCN2CCc3ccccc3C2)c(=O)c2cc3sccc3n12,>57,?
O=C(NCCc1ccccc1)c1ccncc1,>57,-11%
CC(C)(C)N1C(=O)[C@H]2[C@H]3[C@H](O)[C@H](O)C/C(=N/NC(=O)OCc4ccccc4)[C@@H]3CC[C@@H]2C1=O,/,4%[8 µM]
CCOC(=O)c1sc(NC(=O)c2ccc3ncsc3c2)nc1C,>57,-1%
COCC(=O)Oc1c(S(=O)(=O)c2ccc(C)cc2)c(C)nn1-c1ccccc1,>57,?
CC1Cc2nc(SCC(=O)Nc3ccccc3F)n(C)c(=O)c2S1 (stereo not given),>57,7%
O=C(NCC1CCCO1)C1CC(c2ccc(Cl)c(Cl)c2)=NO1 (stereo not given),>57,-2%
CC12CN3CC(C)(CN(C1)C3c1ccc(Br)cc1)C2=O (stereo not given),>57,5%
CC1CCN(Cc2ccc(NC(=O)C3CCN(c4nnc(-n5cccc5)s4)CC3)cc2)CC1,>57,?
CC(C)CCN1CC(C(=O)NCc2ccccc2)CC1=O (stereo not given),>57,3%
C[N+]1(CCN=C=NC2CCCCC2)CCOCC1,>57,-5%[8 µM]
CC12CCC(=O)C=C1CCC1C2CCC2(C)C(O)CCC12 (stereo not given),/,-1%
O=C(NC1CCCCC1)C1CCCN(S(=O)(=O)c2cnc[nH]2)C1 (stereo not given),>57,4%
COc1ccc2[nH]cc(CCNc3ncnc4ccc(-c5cccc(C#N)c5)cc34)c2c1,>57,?
O=C(CCCN1C(=O)CCC1=O)Nc1ccc2c(c1)OCCO2,>57,8%
O=C(c1cnc2sccn2c1=O)N(Cc1ccccc1)c1ccccn1,>57,7%
Cc1ccc2cc(C#N)c(SCC(=O)NCC3CCCO3)nc2c1C (stereo not given),>57,-3%
CC(=O)Oc1c(S(=O)(=O)c2ccc(C)cc2)c(C)nn1-c1ccccc1,>57,8%
c1cc2c(cc1C(N1CCNCC1)N1CCNCC1)OCO2,>57,-10%[8 µM]
CCOc1ccc(-c2nc(C#N)c(N3CCN(Cc4ccccc4)CC3)o2)cc1,>57,?
O=C(Nc1ccc2c(c1)OCCO2)C1CCN(C(=O)c2ccc(Br)cc2)CC1,>57,7%
COc1cc(C(=O)OCC(=O)c2cc(C)n(C)c2C)cc(NC(=O)c2ccco2)c1OC,>57,-2%
Cc1ccc(C2=N/C(=C/N3CCOCC3)C(=O)O2)cc1,>57,0%
Cc1ccc(S(=O)(=O)Cc2ccc(C(=O)N3CCN(c4cc(C)ccc4C)CC3)o2)cc1,>57,?
N#CC(O)c1ccccc1 (stereo not given),/,-1%
O=C(CCC(=O)Nc1ccc(Oc2ccccc2)cc1)NCCO,>57,?
Cc1cc(-c2ccccc2)nc2cc(C(=O)NCCCn3ccnc3)nn12,>57,3%
CCOC(=O)C1CCN(c2cc(C)nc3cc(-c4cccc(F)c4)nn23)CC1,>57,6%
CC(C)(C)c1csc(NC2=NS(=O)(=O)c3ccccc32)n1,>57,-22%

# Going on with the list.
compound,Prx2 Sm inh,LT uptake inh
N[C@H](Cc1ccc(Cl)cc1)C(=O)O,>57&>57,?
COc1cc(C2C3=C(CC(c4ccco4)CC3=O)Nc3ccccc3N2C(C)=O)cc(OC)c1OC (stereo not given),/,-16%
COc1cc2nc(NC(=O)c3ccccc3)[nH]c(=O)c2cc1OC,>57,-1%
c1ccc(CCCc2nc(-c3ccccn3)no2)cc1,>57,5%
CCOC(=O)C1=C(c2ccccc2)N2CCN=C2S1,>57,?
Cc1cc(NC(=O)CN2CCc3ccccc3C2)nc2c1c(=O)oc1ccccc12,>57,?
Cc1nn(Cc2ccc(Cl)c(Cl)c2)c(C)c1NC(=O)c1noc2c1CCCCC2,>57,-4%
CCOC(=O)Cn1c(=O)c2c(nc(Br)n2Cc2ccc(Cl)cc2)n(C)c1=O,>57,-8%
Cc1cccc(Nc2nc(N)nc(CN3CCN(c4ccc(F)cc4)CC3)n2)c1,>57,-3%
Cc1cc(C)cc(N2C(=O)CSC2c2cccs2)c1 (stereo not given),>57,-10%
Cc1ccc(-c2cc(C(=O)Nc3cnn(C45CC6CC(CC(C6)C4)C5)c3)no2)cc1,>57,2%
O=C(O)CCCNS(=O)(=O)c1ccc2ccccc2c1,>57,19%
N#CC1=C(N)Oc2n[nH]c(-c3ccccc3)c2C12C(=O)Nc1ccccc12 (stereo not given),>57,-14%
Cc1nn2c3c(cnc2c1-c1ccc(Cl)cc1)C(=O)CC(c1ccco1)C3 (stereo not given),>57,0%
CC(C)C[C@@H]1NC(=O)N(CCN2CCOCC2)C1=O,>57,8%
O=C(Cc1ccc(S(=O)(=O)N2CCOCC2)s1)NCC1CCCCC1,>57,4%
N#CCCn1c(=O)c(-c2ccccc2)nc2cnc(Oc3cccc(Cl)c3)nc21,>11,?
Oc1ccc(-c2csc(Nc3cccnc3)n2)cc1,>57,0%
Cc1cccc([C@@H]2CN(C)CCc3c2cc(O)c(O)c3Cl)c1,>57&>57,?

# Bioassay records (PubChem)

# The list is partial. The share of hits here may be higher or lower than overall.
